Bioassay records from PubChem BioAssay.
RanGTP-Impb inh: disruptors of Ran-importin-beta complex formation – biochemical, FRET, CFP-Ran, YFP-importin-beta, homogeneous, primary screen | AID 2216 | cell-free CFP-Ran/YFP-importin-beta FRET ratio | inhibition, % (no concentration beside the values) | hit rate 1.1% among 300,000;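 active means most replicates above 15%; inconclusive means exactly half above 15%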;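 further: 0% = DMSO wells and 100% = Ran loaded with GDP instead of GTP; wells of about 40 µL received 100 nL stock; the first replicate is given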
LANA-H2A inh: blocks KSHV LANA binding to histone H2A/H2B; cell-free LANA-H2A/H2B peptide, fluorescence polarization; inhibition, % (test concentration not listed); hit rate 0.6% among 320,000; AID 2629; in the data active means inhibition mostly above about 10%, no sharp cut-off; inactive means mostly below about 6.7%;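 further: stock transfer was 7.5 nL into about 10 µL; 0% = median of vehicle wells and 100% = median of positive control wells; one replicate is shown; the record names a cut of 25% in any replicate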
Target sequence (Q9QR71 whole entry, looked up): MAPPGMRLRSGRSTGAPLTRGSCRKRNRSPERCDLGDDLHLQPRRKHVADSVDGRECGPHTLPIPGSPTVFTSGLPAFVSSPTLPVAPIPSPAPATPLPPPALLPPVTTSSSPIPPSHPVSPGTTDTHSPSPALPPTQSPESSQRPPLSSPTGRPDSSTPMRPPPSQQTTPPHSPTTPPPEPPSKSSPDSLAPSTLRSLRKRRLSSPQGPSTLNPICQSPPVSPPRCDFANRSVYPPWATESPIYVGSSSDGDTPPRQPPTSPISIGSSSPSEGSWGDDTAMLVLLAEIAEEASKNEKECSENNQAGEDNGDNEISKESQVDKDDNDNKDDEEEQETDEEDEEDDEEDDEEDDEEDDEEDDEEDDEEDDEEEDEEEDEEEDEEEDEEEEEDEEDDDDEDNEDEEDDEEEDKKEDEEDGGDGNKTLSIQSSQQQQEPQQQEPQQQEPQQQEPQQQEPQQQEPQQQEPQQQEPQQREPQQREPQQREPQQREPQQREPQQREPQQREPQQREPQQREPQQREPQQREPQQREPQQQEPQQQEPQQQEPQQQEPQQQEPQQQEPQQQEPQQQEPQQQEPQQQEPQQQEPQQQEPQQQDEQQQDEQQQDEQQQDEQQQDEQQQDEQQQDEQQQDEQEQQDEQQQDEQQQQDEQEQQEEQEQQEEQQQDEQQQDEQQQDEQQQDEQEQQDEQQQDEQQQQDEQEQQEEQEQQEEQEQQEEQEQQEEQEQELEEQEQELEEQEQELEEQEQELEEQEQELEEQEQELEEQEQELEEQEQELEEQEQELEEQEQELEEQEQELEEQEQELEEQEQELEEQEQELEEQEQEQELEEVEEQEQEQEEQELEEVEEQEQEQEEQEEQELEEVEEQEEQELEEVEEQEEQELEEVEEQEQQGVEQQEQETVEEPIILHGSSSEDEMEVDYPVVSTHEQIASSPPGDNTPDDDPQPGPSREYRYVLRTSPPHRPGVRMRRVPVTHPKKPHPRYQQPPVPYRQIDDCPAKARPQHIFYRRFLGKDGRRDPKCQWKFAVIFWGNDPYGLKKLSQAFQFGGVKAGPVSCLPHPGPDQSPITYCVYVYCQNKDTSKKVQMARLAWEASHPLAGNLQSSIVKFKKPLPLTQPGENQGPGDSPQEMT
A1 inh: inhibitors of the anti-apoptotic protein A1, read as caspase activation | caspase activation, % (concentration not given with the values) | hit rate 0.066% among 330,000 | MEF A1-2A-BIM cells, Caspase-Glo 3/7 luminescence, 3 h; percent of clofoctol response, vehicle zero;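 active means over half of replicate activation scores above 10%, or exactly half above 10 with the replicate mean above 10; inconclusive means replicate mean below 10 yet half the replicates above 10; inactive means over half of replicates below 10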;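 further: wells of about 30 µL received 50 nL stock; many hits fall short of the cut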
Beta cell apopt: beta cell apoptosis inhibition. INS-1E cytokine-induced death, ATP luminescence, 48 h; percent of positive-control rescue, neutral wells zero. protection from apoptosis, % (concentration not given with the values). hit rate 0.8% among 300,000;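 active means all replicates at 75% or more, or half of them and the mean; inconclusive means half reach 75% but not the mean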;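 further: 0% = cytokine-treated negative control wells and 100% = positive control rescue; higher means more ATP so stronger rescue from cytokine killing; wells of about 40 µL received 100 nL stock; the first replicate is given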
AF4-AF9 inh: inhibitors of human MLL-AF4/AF9 interaction | P42568 | AlphaScreen, biotin-AF4 peptide binding to FLAG-AF9 | inhibition, % at 10 µM | hit rate 0.47% among 350,000 | AID 651704;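 active means every replicate reaching a set inhibition limit, whatever the replicate mean, cut at about 25% in these data; inconclusive means mean inhibition reaches that limit but some replicates miss it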;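 further: 0% = plate neutral control median and 100% = total signal loss; the record names both 10 and 1 µM as test concentration; the first replicate is given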
Calb FLC: affects C. albicans growth with fluconazole; growth inhibition, % (concentration not given with the values); C. albicans CaCi-2 (fluconazole-resistant clinical isolate) + fluconazole, Alamar Blue growth, 48 h; hit rate 0.57% among 300,000; AID 1979;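 active means most replicates above 75%; inconclusive means exactly half above 75%; inactive means most below 75%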;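 further: all wells also contain fluconazole at 8 µg/ml as a sub-toxic cotreatment; 0% = median of DMSO wells and 100% = median of geldanamycin control wells; wells of about 8 µL received 7.5 nL stock; the first replicate is given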
Vif TR-FRET: inhibitors of Vif binding to APOBEC3G peptide, primary screen, biochemical, TR-FRET, GST-Vif 1-94, biotin-A3G peptide, dose response retest (AID 1117319); inhibition, %, or IC50 in µM where a hit was titrated; TR-FRET GST-Vif / biotin-A3G peptide binding; higher % means a stronger effect; test concentration not given here; strong numbers were not always called active; hit rate 0.57% among 260,000;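 active means above the screen mean plus three standard deviations and confirmed in dose response; inconclusive means results disagree or hit not tested in dose response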;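 further: Vif residues 1-94 fused to GST binding biotinylated APOBEC3G peptide 110-148; 0% = full assay without inhibitor and 100% = GST in place of GST-Vif; retest series ran down from 100 µM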
T cruzi inh: T. cruzi replication inhibition. AID 1885. inhibition, % (concentration not given with the values). hit rate 1.4% among 300,000. T. cruzi beta-gal in NIH3T3, luminescence, 90 h;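 active means mean inhibition across valid replicates above about 55%, limit read from the data; inconclusive means mean below that limit but half or more replicates reach it; inactive means mean below it, under half of replicates reach it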;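 further: signal also drops with host cell toxicity which is not excluded here; 0% = plate median of DMSO wells and 100% = zero luminescence signal; higher percent means less beta-gal luminescence so fewer parasites; stock transfer was 50 nL into about 50 µL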
The depositor's hits bear a star; ? = inconclusive; . = no result given; & = joins results of further samples. The order is random (roughly 4.3% active in at least one column).

SMILES	RanGTP-Impb inh	LANA-H2A inh	A1 inh	Beta cell apopt	AF4-AF9 inh	Calb FLC	Vif TR-FRET	T cruzi inh
Cc1cccc(C)c1OCC(=O)Nc1cccc(NC(=O)c2ccco2)c1	-1.7	1.0	0.3	.	.	-4	17%	16
CSc1nsc(SCC(=O)Nc2ccccc2)n1	1.4	1.7	-0.8	-8	-2.2	-17	.	4
CNC(=O)CS(=O)CC(=O)Nc1cc(OC(C)C)c(Cl)cc1Cl (stereo not given)	-2.6	-4.2	-0.1	-4	-0.2	6	-5%	1
CCCCNC(=O)CCn1ccc2cc(S(=O)(=O)N3CCCC3)ccc21	0.2	2.9	-1.2	-9	-3.3	23	.	10
Cn1cc([N+](=O)[O-])c(C(=O)Nc2ccc(-c3nc4ccccc4[nH]3)cc2)n1	-0.4	3.4	-2.1	-6	-5.9	-6	.	-17
Cc1ccc(Cl)cc1N1CCN(C(CC(C)C)c2nnnn2CC2CCCO2)CC1 (stereo not given)	1.8	6.0	-0.1	5	.	-10	6%	-21
CC(NC(=O)CN(C)S(=O)(=O)c1ccc2c(c1)c(=O)n(C)c(=O)n2C)c1ccccc1 (stereo not given)	2.9	-0.9	0.4	0	-1.5	-7	.	-8
Cc1cc(C(=O)Nc2ccc(N3CCOCC3)c(Cl)c2)c(C)o1	-0.8	2.2	-5.8	-6	-2.3	-17	3%	.
COc1ccc(OC)c(NC(=O)COC(=O)CCC2CCCC2)c1	.	-1.7	1.7	-4	-1.8	.	.	.
CCN(C(=O)COC(=O)c1nn(-c2ccccc2)c(=O)c2ccccc12)C1CCS(=O)(=O)C1 (stereo not given)	0.3	8.6	-0.2	-2	4.9	-1	18%	-9
CC1(C)CC2CC(C)(CN2C(=O)c2ccc([N+](=O)[O-])cc2)C1 (stereo not given)	2.6	1.4	0.8	0	1.0	-12	.	-5
COc1cccc(-n2c(-c3ccc4[nH]c(C)c(C)c4c3)n[nH]c2=S)c1	-0.4	-1.7	-1.0	-13	-12	32	.	24
O=C(O)C1C2C=CC(C2)C1C(=O)OCc1ccccc1 (stereo not given)	-0.7	-1.4	0.6	-6	.	?	-5%	-6
CC(=O)c1sc(N)nc1C	2.9	-1.7	-0.1	4	-1.0&2.6	-4	-1%	-2
N/C(=N\OC(=O)CCCOc1ccccc1)c1ccccn1	?	-5.5	-0.4	0	-1.2	-6	23%	4
CCN(CC)CCCNc1nc(N)c([N+](=O)[O-])c(NCCO)n1	3.0	-3.2	0.8	-12	-1.5	20	1%	-15
Cc1ccc(CNC(=O)CCc2c(C)nc3c(c(C)nn3-c3ccc(C)cc3)c2C)cc1	2.8	-2.8	1.4	.	4.7	1	-8%	-2
Oc1ccccc1/C=N/Nc1nc2ccccc2o1	?	-0.6	-4.8	98*	6.9	8	5%	56*
CCCN(CCC)c1nc2ccccc2nc1C(C#N)C(=O)OC(C)COC (stereo not given)	23*	1.3	0.6	6	.	-9	6%	8
CCc1ccccc1NC(=O)CCN1C(=O)c2ccccc2C1=O	2.3	3.2	0.5	3	.	-13	4%	2
O=C(O)c1ccc(NC(=S)NC(=O)c2cncc(Br)c2)cc1	0.2	-5.9	-0.1	0	-0.7	-2	2%	-12
O=C(CNC(=O)c1ccc(Cl)cc1)OC1CCOC1=O (stereo not given)	9.4	1.1	2.1	-1	-2.7	-3	-4%	-10
O=C(COc1ccccc1Cl)Nc1ccc2c(c1)OCO2	1.0	-0.4	-0.9	6	0.9	7	.	-1
O=C(CCc1nc2cccnc2n1Cc1ccccc1)N1CCOCC1	4.9	-0.7	0.6	-9	.	-9	-2%	8
COc1ccc2c(c1)C(=O)N(c1ccccc1OC)C(=O)C2(C)C	-1.7	-0.4	0.0	2	.	0	?	-4
CCN(C[C@H]1N[C@@](Cc2ccccc2)(C(=O)OC)[C@H]2C(=O)N(Cc3ccccc3)C(=O)[C@@H]12)C(=O)c1ccc(C)cc1	.	-2.3	-0.7	14	0.4	.	0%	.
CN(Cc1ccc2c(c1)OCCO2)C(=O)CN1C(=O)NC2(CCCCC2)C1=O	0.6	-1.6	-0.3	-5	-1.3	-2	.	-16
COc1ccc(C(C)=O)cc1CSCc1cc(C(C)=O)ccc1OC	-0.3	-5.3	0.8	-3	1.7	1	-3%	5
CCN1C(=O)c2ccccc2S(=O)(=O)c2ccc(C(=O)NCCCN(CC(C)C)CC(C)C)cc21	-4.5	0.7	-0.2	-5	0.9	-2	1%	12
CN(C)C(=O)CSc1nnc(C23CC4CC(CC(C4)C2)C3)o1	5.0	-0.4	0.6	-8	.	-5	0%	12
Cc1cc(NC(=O)CSc2cn(CCNC(=O)c3ccccc3)c3ccccc23)no1	-3.2	-1.3	0.0	-9	.	5	0%	4
O=C(N/N=C/c1cc([N+](=O)[O-])cc(Br)c1O)C12CC3CCC(CC(C3)C1)C2	0.5	1.4	-0.9	-2	-29	24	?	-18
O=C(N1CCOCC1)C12CC3CC(C1)CC(n1cnc(Cl)n1)(C3)C2	-0.8	4.5	0.3	-2	.	-8	9%	-5
COc1ccccc1CNC(c1ccccc1)c1ccccc1	-0.2	-3.8	0.5	-1	0.8	-62	.	13
O=c1[nH]cnc(O)c1N=Nc1ccccc1	8.2	4.3	0.3	-10	-0.9	-6	.	7
COc1ccc(Br)cc1-c1nc2c(c(=O)[nH]c(=O)n2Cc2ccccc2)n1C	-2.4	4.6	-0.1	-3	1.0	-9	.	-4
Cc1ccc(-c2nc(NCc3ccc(F)cc3)n(S(C)(=O)=O)n2)cc1	-2.4	0.0	0.0	-3	1.7	-6	.	-4
CN(C)S(=O)(=O)c1ccc(S(=O)(=O)NCc2ccc3c(c2)OCO3)cc1	-1.0	5.1	0.4	-4	-1.0	6	-8%	1
O=C1CCC(C(=O)OCC(=O)c2c[nH]c3ccccc23)=NN1	-3.9	3.9	-1.0	-5	.	-11	-2%	-16
COc1ccc(Nc2nc(-c3cccnc3)cs2)c(OC)c1	-0.9	-9.5	-3.2	.	10	-2	.	0
COc1ccc(NC(=O)CN2CCN(C3c4ccccc4-c4ccccc43)CC2)c(OC)c1	0.3	2.1	-0.4	10	.	-14	-9%&12%	34
COc1ccc(-n2c(SCC(N)=O)nc3nc4c(cc3c2=O)COC(C)(C)C4)cc1	-1.4	-4.6	1.1	-4	.	4	-4%	-8
COc1ccc(C(=O)Nc2nnc(S(=O)(=O)N(C)Cc3ccc(F)cc3)s2)cc1OC	-0.7	-0.4	-0.3	4	2.2	-4	.	-16
O=C(COC(=O)CCN1C(=O)/C(=C\C=C\c2ccccc2)SC1=S)Nc1cc(F)ccc1F	-3.7	6.1	-1.1	2	-4.3	-11	?	-20
COc1ccccc1C(=O)COC(=O)c1cc(=O)[nH]c2ccccc12	2.8	-8.0	-0.3	-5	-1.5	.	-6%	-9
CC1(C)CC(=O)c2cc(OCC(=O)N3CCOCC3)ccc2O1	0.0	3.2	0.5	-5	.	-7	2%	-4
Cc1ccc(S(=O)(=O)N2CCN(C(=O)COc3ccc(C)nc3[N+](=O)[O-])CC2)c(C)c1	7.6	7.7	0.7	8	1.3	16	-13%	13
Cc1cccc(-n2c3nc(=O)[nH]c(=O)c-3cc3cc([N+](=O)[O-])ccc32)c1	2.4	-3.4	0.3	14	-12	-3	17%	9
CCN1C(=O)[C@H]2[C@@H](c3ccc(SC4CCCCC4)cc3)N[C@@](CC(C)C)(C(=O)OC)[C@H]2C1=O	3.6	5.8	0.1	0	1.1	-1	.	-29
NC(=O)NC(CC(=O)Nc1cccnc1)c1cccc(Br)c1 (stereo not given)	2.8	-1.8	0.2	-10	0.1	-17	.	-7
COc1ccc(-n2nc(C(=O)NCC(=O)N3CCC(C)CC3)c3ccccc3c2=O)cc1Cl	?	-16	0.7	1	-2.7	33	.	29
CCN(Cc1cnn(C)c1)C(=O)c1ccc2nc(Cc3cccc(Cl)c3)oc2c1	-2.1	0.2	1.0	1	2.5	0	.	11
CCO[C@@H]1OC(C(=O)O)=C[C@H](c2coc3ccccc3c2=O)[C@H]1CCCO	-1.1	6.0	-1.0	-9	.	0	7%	13
C=CCOn1c(=O)c(=O)n(OCc2ccccc2)c2ccccc21	2.0	-12	1.0	2	.	-5	13%	9
Cc1c(C(=O)O)[nH]c2c1C(=O)CC(c1ccccc1)C2 (stereo not given)	0.6	2.5	0.1	1	.	35	-1%	-1
O=c1cc(N2CCc3ccccc3C2)[nH]c(=O)n1-c1ccccc1Cl	80*	-2.3	-0.2	-4	0.8	-3	13%	-8
Cc1nc(N2CCN(c3ccccn3)CC2)c2c(C)c(C(=O)Nc3ccc(Br)cc3C)sc2n1	-3.8	-0.3	-0.8	14	-27	-2	.	-13
Cc1ccc(-n2ncc(C(=O)NCc3ccc4c(c3)OCO4)c2NC(=O)c2ccco2)cc1C	0.3	2.6	0.8	-3	.	-38	0%&-7%	-4
Cc1occc1C(=O)NC1CCCN(Cc2ccc(CC(C)C)cc2)C1 (stereo not given)	1.7	-28	0.1	.	3.6	-10	?	58*
O=C(O)c1cc(S(=O)(=O)Nc2cccc3ccccc23)c(Cl)cc1Cl	-1.4	-0.1	0.7	.	7.2	26	.	-12

(listing goes on)
SMILES	RanGTP-Impb inh	LANA-H2A inh	A1 inh	Beta cell apopt	AF4-AF9 inh	Calb FLC	Vif TR-FRET	T cruzi inh
CCN(CC)C(=O)Nc1c(C)n(C)n(-c2ccccc2)c1=O	1.6	0.6	-0.6	0	.	1	-3%	-11
O=C(NCc1cccnc1)C1c2ccccc2C(=O)N1Cc1ccco1 (stereo not given)	-0.8	0.6	-0.4	-2	-63	3	9%	5
CCn1c(N2CCN(CC(=O)Nc3cccc(C)c3C)CC2)nc2ccccc21	-3.4	-2.2	-0.1	-4	.	5	0%	8
O=c1c(/C=N/O)coc2ccc3ccccc3c12	0.5	3.8	0.6	2	.	-3	4%	.
CCc1ccc(NC(=O)CN(C(=O)N2CCN(CC)CC2)S(=O)(=O)c2ccc(C)cc2)cc1	7.5	-2.6	0.2	-4	3.7	-7	-3%	-10
CCN1CCN(S(=O)(=O)c2ccc3c4c(cccc24)C(=O)N3CC)CC1	.	-2.0	1.2	-1	-0.1	.	.	.
Cc1ccc(COC(=O)CCc2nc3ccccc3c(=O)[nH]2)cc1	5.9	4.7	0.7	-12	.	14	.	7
COc1ccc(CCNC(=O)CN(CCc2ccccc2)S(C)(=O)=O)cc1	8.2	11	0.2	1	0.1	-31	.	-1
COCCCNC(=O)CSc1nc2c(sc(=S)n2-c2cc(Cl)ccc2OC)c(=O)[nH]1	-0.4	-1.6	-0.5	2	-0.8	1	.	-4
CNS(=O)(=O)c1ccc2c3c(cccc13)C(=O)N2C	4.9	2.0	0.0	.	-4.7	3	.	-20
COCCN1C=C(C(=O)OC)C(c2ccc(OC)c(OC)c2)C(C(=O)OC)=C1	5.8	-2.4	0.3	-6	2.3	-22	0%	-6
O=C(Nc1ccc(NC(=O)C2CC2)cn1)c1ccccc1	3.0	-2.8	-7.2	-1	-0.9	-5	.	-7
